Screening results (PubChem)
AID504770: growth inhibitors of E. coli YBA685 in a screen for V. cholerae RctB (chromosome II replication) inhibitors. E. coli YBA685 rctB-dependent plasmid, OD600 growth, 3 h; hits give low values. z-score (concentration not given with the values). 0.27% of 130,000 active. AID 504770;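 active = z-score under -2 on both plates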;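 also: wells of about 30 µL received 100 nL stock; score is relative to mean and SD of the test wells; the first replicate is given; strong numbers were not always called active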
Ba CapD inh: inhibitors of Bacillus anthracis CapD enzyme; purified CapD enzyme, fluorescence intensity read-out; hits give low values; some hits fall short of the stated cut; 0.23% of 140,000 active; z-score (no concentration beside the values);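 active = z-score under -4 in either of two replicates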;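 also: stock transfer was 100 nL into about 40 µL; score is relative to mean and spread of the plate; one replicate is shown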
Starred values were filed as active, the others as inactive; . = not tested or not shown.

Below each SMILES: AID504770 | Ba CapD inh
- CC1CN(C(=O)c2ccc(C#N)cc2)CC(C)O1 (stereo not given)
→ -0.15 | .
- CN(C(=O)c1cccc(N)c1)C1CCCCC1
→ -0.85 | .
- CC(c1ccccc1)N1CC(C(=O)Nc2sccc2C#N)CC1=O (stereo not given)
→ 0.05 | .
- C=CCn1c(=S)sc2c(=O)n(CC(=O)Nc3ccc(F)cc3)cnc21
→ -0.6 | .
- COC(=O)C1(C)Oc2cc(Cl)ccc2NC1=O (stereo not given)
→ 1.1 | -0.025
- CC(=O)Oc1ccc2occ(C(=O)c3ccc(Br)s3)c2c1
→ 0.45 | -0.06
- CNC(=O)C1CCN(S(=O)(=O)c2c(C)noc2/C=C/c2ccc(OC)cc2)CC1
→ -0.15 | 2.5
- O=C(N/N=C/c1ccoc1)c1ccc(OC(F)(F)F)cc1
→ . | -0.93
- Cc1nc2ccccc2c(=O)n1-c1ccc(N)cc1
→ -0.35 | .
- c1ccc(CCNc2cc(-c3ccccc3)nc3nncn23)cc1
→ 0.45 | 12
- Cc1ccc(Cl)cc1NC(=O)/C(=C/c1ccc([N+](=O)[O-])cc1)NC(=O)c1ccc(C(C)(C)C)cc1
→ . | -0.09
- CCOC(=O)CC1Sc2ccccc2N=C1SCC(=O)Nc1cccc(C(F)(F)F)c1 (stereo not given)
→ 1.4 | 0.12
- COc1cccc(NC(N)=O)c1
→ -0.2 | 0.39
- CC1=C(C(=O)Nc2ccc(Br)cn2)C(c2cc([N+](=O)[O-])ccc2Cl)C2=C(CCCC2=O)N1 (stereo not given)
→ . | -0.33
- O=C(CCn1c(=O)sc2ccccc21)Nc1nccs1
→ -0.75 | 1.3
- COc1ccc(N2C(=O)C3C(c4cccc(Br)c4)OC4(C(=O)c5ccccc5C4=O)C3C2=O)cc1 (stereo not given)
→ . | 0.075
- O=C(CCCn1c(SCc2cc(=O)n3cc(Cl)ccc3n2)nc2ccccc2c1=O)NCc1ccccc1Cl
→ . | 1.8
- CCSc1nnc(NC2=NCCC2)s1
→ -0.15 | .
- CCSc1cnn(C2CCCCC2)c(=O)c1Cl
→ 0.7 | 0.21
- CC(C)CN1Cc2cccc(C(=O)O)c2C1=O
→ 0.35 | 0.07
- O=c1[nH]c2ccccc2c2oc(-c3ccccc3)nc12
→ -1.1 | 11
- CN1C(=O)C(=Cc2nc3ccccc3c(=O)n2-c2ccc([N+](=O)[O-])cc2)c2cc(Br)ccc21
→ . | -0.34
- O=C(Nc1c2c(nn1-c1ccc(F)cc1)CS(=O)(=O)C2)c1ccc(S(=O)(=O)N2CCCC2)cc1
→ . | -0.27
- O=C(CSc1nnc2n1CCCCC2)Nc1ccccc1C(F)(F)F
→ -0.3 | 0.55
- CC1(CCc2ccc3c(c2)OCO3)NC(=O)c2ccccc2N1 (stereo not given)
→ -0.85 | 56
- COc1ccc(C(=O)CCC(=O)NC2=NCCS2)cc1
→ 0.2 | 65
- O=C(NCc1ccc(Cl)cc1)c1cnc(-c2ccccc2)nc1-c1ccccc1
→ . | -0.13
- O=C(CCCN1C(=O)/C(=C/c2cccs2)SC1=S)Nc1cccc(C(F)(F)F)c1
→ 1 | -1.8
- COc1ccc(C2Nc3ccccc3C(=O)N2Cc2ccco2)cc1COc1ccc(F)cc1 (stereo not given)
→ . | 72
- O=C1c2ccccc2C(=O)N1CCc1c[nH]c2ccc(O)cc12
→ 0.8 | .
- O=C(O)c1[nH]c2ccc(Cl)cc2c1CC(=O)N1CCN(Cc2ccccc2)CC1
→ 1.3 | -0.085
- O=C(CSc1nnc2c(n1)CCCC2)c1ccc(Cl)cc1
→ -2.9 | .
- Cn1c(=O)n(C)c2cc(C=C3C(=O)c4ccccc4C3=O)ccc21
→ 1.6 | -0.39
- O=C(c1cccs1)N(c1ccc(F)cc1)c1nc2ccccc2s1
→ 0.05 | .
- CCC(=O)CC(C)(O)Nc1cc(-c2sccc2-n2c(C)ccc2C)[nH]n1 (stereo not given)
→ . | 0.2
- N#CCSc1ncnc2ccccc12
→ -1.1 | .
- CCOC(=O)c1c(C)oc2ccc(N(C(=O)c3ccncc3)S(=O)(=O)c3ccccc3)cc12
→ . | -1.1
- COc1ccc(OCC(=O)Nc2ccncc2)cc1
→ -0.2 | 0.31
- Cc1[nH]c2ccccc2c1SCCNC(=O)/C=C/c1ccccc1
→ -1.1 | -0.35
- Cc1nc2cc3ccccc3cc2c(=O)[nH]1
→ -0.95 | .
- Cc1cccc2c(N=NC(=O)OC(C)(C)C)c(O)[nH]c12
→ 1.1 | .
- CC1(C)CC(=O)C(=Cc2c[nH]c3ccccc23)C(=O)C1
→ -1.1 | -4.7*
- CC1OC(OC2/C=C/C=C/C=C/C=C/CC/C=C/C=C/[C@H](C)[C@@H](O)[C@@H](C)[C@H](C)OC(=O)CC(O)CC(O)CC(O)CCC(O)C(O)C[C@]3(O)CC(O)C(C(=O)O)C(C2)O3)C(O)C(N)C1O (stereo not given in full)
→ . | -0.3
- CC(=O)Oc1ccc(/C=N/NC(=O)c2ccc(OC(F)(F)F)cc2)cc1
→ . | 0.95
- Cc1ccccc1-c1nnc(N(C)C(=O)C2CC2)s1
→ -0.8 | .
- Cc1nnc(SCCCCSc2nnc(C)n2N)n1N
→ 2.4 | -0.63
- CCCn1c(=O)[nH]c(=O)c2c(C(=O)O)cc(-c3ccccc3)nc21
→ -0.5 | .
- Cc1ccc2nc(N3CCN(C(=O)CCC(=O)O)CC3)nc(-c3ccccc3)c2c1
→ . | -1
- CCNc1nc2ccccn2c(=O)c1/C=C1\SC(=S)N(Cc2ccco2)C1=O
→ 2.4 | 0.27
- Brc1ccc(CNc2ccc3cn[nH]c3c2)s1
→ -0.95 | 0.95

Next part:
Below each SMILES: AID504770 | Ba CapD inh
- O=C(Nc1ccc(C(F)(F)F)nc1OCc1ccccc1)c1ccccc1
→ -0.5 | 1.3
- O=C(O)c1c2c(nc3ccccc13)CSc1ccc(Cl)cc1-2
→ -1.1 | 1.1
- O=C(O)CC1(CC(=O)NCc2ccccn2)CCCCC1
→ -0.65 | 0.28
- CCN(CC)C(=O)c1cc2sc3ccccc3c2s1
→ -0.2 | 1.7
- CC(C)Cn1c(N2CCN(C(=O)Nc3ccc(Cl)cc3)CC2)nc2ccccc21
→ -0.05 | .
- O=C(COc1ccccc1Cl)N1CCCc2ccccc21
→ -0.3 | -0.23
- N#C/C(C(=O)Nc1ccc(SC(F)F)cc1)=c1/s/c(=C\c2ccco2)c(=O)n1-c1ccccc1
→ 1.3 | .
- CCOC(=O)c1ccc(C(=O)N(NC(=O)C(O)(c2ccc(Cl)cc2)c2ccc(Cl)cc2)c2ccccc2)cc1
→ . | 0.02
- COn1c(=O)c(-c2ccccc2)[n+]([O-])c2ccccc21
→ . | 0.14
- O=C(COc1ccc(F)cc1)NCCN1CCOCC1
→ -1 | 0.015
- c1ccc(CNC2=NCCCC2)cc1
→ 0.45 | 0.02
- O=C(CN(c1cccc([N+](=O)[O-])c1)S(=O)(=O)c1ccccc1)NCCSCc1ccc(Cl)cc1
→ . | -1.5
- N#CC(C#N)=C(N)/C(C#N)=C/c1c[nH]c2ccccc12
→ 0.85 | -3*
- O=C(O)CC1C(=O)N(c2ccccc2)C(=S)N1c1ccccc1 (stereo not given)
→ 0.55 | 0.26
- COC(=O)c1ccc(CSc2cc(C)[nH]c(=O)n2)o1
→ 0.95 | .
- Cc1ccc2cc3c(nc2c1)-c1ccccc1C3=Nc1ccccc1
→ . | -0.035
- Cc1ccc(S(=O)(=O)NC2C3CC4CC(C3)CC2C4)cc1Cl (stereo not given)
→ . | 0.49
- O=C(O)CCC(=O)Nc1ccc(Oc2ncnc3cc(Cl)ccc23)nc1
→ -0.2 | 1.8
- NNC(=O)c1ccccc1-n1cccc1
→ . | -0.15
- O=C(NC1CC1)C1=COCCO1
→ -0.5 | 0.005
- Cc1nc(-c2c(C(=O)NNC(=O)OCc3ccccc3C)noc2C)cs1
→ . | 0
- O=C(NC1=NCCS1)[C@H](Cc1ccccc1)N1C(=O)c2ccccc2C1=O
→ -0.4 | .
- Cc1ccc2cccc(OC(=O)N3CCOCC3)c2n1
→ 0.7 | 0.12
- COc1cccc(C(=O)NCc2ccc3[nH]c4c(c3c2)CCCC4)c1
→ -0.35 | 6.8
- CCNc1nc(NCC)nc(NS(=O)(=O)c2ccc(C)cc2)n1
→ . | -0.18
- COc1ccccc1Nc1nc2nonc2nc1N1CCCCC1C (stereo not given)
→ . | -0.33
- COC(=O)c1ccc2nc(NC(=O)Cc3ccccc3)sc2c1
→ 0.2 | 0.36
- Cc1cc(NS(=O)(=O)c2ccc(N3C(=O)C=CC3=O)cc2)no1
→ 2.2 | -1.5
- CC1(C)CC(=O)C2=C(C1)OC(c1ccccc1)(C(C)(C)C)NC2=O (stereo not given)
→ -1 | -0.52
- O=[N+]([O-])c1cc(C(F)(F)F)ccc1N1CCN(S(=O)(=O)c2cccc3nsnc23)CC1
→ . | -1
- COC(=O)c1cnn2c(C)c(Cc3ccccc3)c(C)nc12
→ -0.15 | 0.025
- CCN(CC(=O)Nc1ccccc1C(=O)Nc1ccccc1)CC(=O)NC1CCS(=O)(=O)C1 (stereo not given)
→ -0.15 | .
- CC(=O)Oc1cccc(/C=N/NC(=O)COc2ccc(Cl)cc2C)c1
→ . | -0.66
- O=C1NCCc2c1[nH]c1c(Br)cc3c(c21)OCCO3
→ . | 3.7
- COc1ccc(CNC(=O)c2nn3c(C(F)(F)F)cc(-c4ccco4)nc3c2Cl)cc1
→ . | 0.39
- CCSc1nc2c(c(=O)n1Cc1ccco1)C1(CCCCC1)Cc1ccccc1-2
→ -0.9 | 0.27
- Nc1ccc(C(=O)Nc2ccc(O)c(-c3nc4ccccc4o3)c2)cc1
→ 0.35 | 1.1
- N#CCCS(=O)(=O)c1ccc(Cc2ccc(S(=O)(=O)CCC#N)cc2)cc1
→ 0.15 | 0.065
- COc1cccc(C2Sc3ccccc3NC3=C2C(=O)c2ccccc23)c1OC (stereo not given)
→ -1 | -0.14
- O=C(O)c1ccccc1S(=O)CCO (stereo not given)
→ 1.9 | 0.09
- CCCc1oc2ccc(NS(=O)(=O)c3ccccc3)cc2c1C(=O)OCC
→ 0.2 | -0.14
- CCc1ccc2nc(SCC(=O)N(CC)CC)c(C#N)cc2c1
→ 0.7 | .
- CCc1cc2c(COC(=O)c3cccc(NS(C)(=O)=O)c3)cc(=O)oc2cc1O
→ 2 | .
- CC(NC(=O)c1ccccc1)c1ccccc1 (stereo not given)
→ -0.1 | -0.17
- COC(=O)C(N)c1ccccc1 (stereo not given)
→ 0.55 | 0.39
- CCOC(=O)c1c(CN2CCOCC2)n(Cc2ccccc2)c2cc(Br)c(O)cc12
→ . | -0.15
- COCCN(Cc1nc2ccccc2c(=O)[nH]1)C(=O)Cn1cnc2sccc2c1=O
→ 0.7 | .
- COc1ccc(CCn2c(-c3ccc(-c4ccccc4)cc3)csc2=Nc2ccccc2)cc1
→ . | -0.31
- CCN(CC)C(=O)CSc1nnc2c(n1)[nH]c1ccc(C(C)C)cc12
→ 0.8 | .
- O=C(NC(Cc1c[nH]c2ccccc12)C(=O)NC1CCCCC1)OCc1ccccc1 (stereo not given)
→ 0.1 | 0

(next part)
Below each SMILES: AID504770 | Ba CapD inh
- O=C(CCc1ccc(S(=O)(=O)N2CCOCC2)cc1)NCC(F)(F)F
→ 1.5 | .
- O=C(CN1C(=O)CSC1=O)Nc1ccccc1N1CCOCC1
→ 0.45 | -0.14
- O=C(O)CCCC(=O)Nc1ccccc1C(F)(F)F
→ 1.1 | 7.6
- CCOC(=O)C1CCN(C(=O)c2cc3nc(-c4ccc(OC)cc4)cc(C(F)(F)F)n3n2)CC1
→ . | 2.2
- N#C/C(=C\c1ccc(OC(=O)c2ccco2)cc1)C(=O)Nc1ccccc1Br
→ -0.9 | 0.35
- C=CCNC(=O)c1cc(-c2ccc(O)cc2)on1
→ -1.2 | -1
- C=C(C)C(=O)Oc1ccc(N2C(=O)C3C4C=CC(C4)C3C2=O)cc1 (stereo not given)
→ 0.3 | -0.32
- O=C(ON1C(=O)CCC1=O)c1ccc(Cl)cc1Cl
→ -0.3 | -4*
- Cc1c(-c2ccnn2C(=O)Nc2ccccc2)sc2ccccc12
→ 0.4 | 2.9
- CCOC(=O)c1oc2c(c1C)/C(=N/O)CCC2
→ -0.15 | .

Next section, overlapping the part above by four compounds.
Below each SMILES: AID504770 | Ba CapD inh
- C=C(C)C(=O)Oc1ccc(N2C(=O)C3C4C=CC(C4)C3C2=O)cc1 (stereo not given)
→ 0.3 | -0.32
- O=C(ON1C(=O)CCC1=O)c1ccc(Cl)cc1Cl
→ -0.3 | -4*
- Cc1c(-c2ccnn2C(=O)Nc2ccccc2)sc2ccccc12
→ 0.4 | 2.9
- CCOC(=O)c1oc2c(c1C)/C(=N/O)CCC2
→ -0.15 | .
- O=C(Nc1ccc(O)cc1C(=O)O)c1cccc(N2C(=O)c3cccc4c([N+](=O)[O-])ccc(c34)C2=O)c1
→ . | -2.1
- CC(C)[C@@H](C(=O)OCc1cc(=O)n2ccsc2n1)N1C(=O)c2ccccc2C1=O
→ 1.1 | .
- O=C(O)c1ccccc1C(=O)N1CCc2ccccc21
→ 0.15 | 0.085
- CC(=O)N1CCc2c(sc3c2c(=O)n(-c2ccccc2)c(=O)n3Cc2ccccc2F)C1
→ 0.1 | 0.92
- COc1cc(Br)cc2c1OC1(C=C2)c2ccccc2-c2ccccc2N1C (stereo not given)
→ . | 0.52
- O=C(O)c1ccc(S(=O)(=O)N(Cc2ccco2)CC2CCCO2)cc1 (stereo not given)
→ 0.25 | 1.6
- CCOC(=O)C1=C(O)/C(=C/c2ccc(O)c(OCC)c2)SC1=Nc1ccc(OC)cc1
→ . | -0.39
- O=c1c(Cl)c(NCc2ccco2)cnn1-c1ccccc1
→ -0.05 | 3.4
- O=C(Nc1cccc(F)c1)c1cccc2c1C(=O)N(Cc1cccnc1)C2
→ 0.4 | -0.055
- C=CCc1cc(/C=C2\C(=O)NC(=O)N(c3ccc4c(c3)OCO4)C2=O)cc(OC)c1OCC(=O)O
→ . | 0.04
- O=C(Nc1ccc(-c2cc3ccccc3oc2=O)cc1)c1ccc2c(c1)OCCO2
→ . | 47
